# Vaccinia inh = blocks a specific stage of Vaccinia orthopoxvirus infection; 89,000 tested, 0.01% active; activity change (mCherry), % (test concentration not listed); Vaccinia-infected cells, mCherry/Venus stage reporter fluorescence; active compounds read low; some inactives read as strong as hits;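 active = mCherry past -33% and 40 or more points under the early reporter, replicates agreeing; inconclusive = past -33% without that gap or agreement; tested in A549 cells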;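 also: scaled between vehicle wells and reference inhibitor wells; 23 nL library stock went into each well; one replicate is shown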
# Vaccinia inh Venus = recorded beside Vaccinia inh, whose call it bears; activity change (Venus), %; measured here: Venus reporter, other viral stage;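 negative = less Venus signal; first of two replicates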
# * hit, by the source's call; ? = inconclusive; . = no result given; & = joins results of further samples. A portion of the library; the hit share may differ from the screen's.
# The opening 16 entries (preview)
1: CO[C@H]1CN(C)C(=O)c2ccc(NC(=O)C3CC3)cc2OC[C@@H](C)N(C(=O)CN2CCOCC2)C[C@H]1C
2: COc1cccc(NC(=O)N[C@@H]2C=C[C@@H](CC(=O)N3CCOCC3)O[C@@H]2CO)c1
3: Cc1noc(C)c1NC(=O)Nc1ccc2c(c1)CC(=O)N([C@@H](C)CO)C[C@@H](C)[C@@H](CN(C)C(=O)Nc1c(C)noc1C)O2
4: C[C@@H]1CCCCO[C@@H](CN(C)S(C)(=O)=O)[C@H](C)CN([C@@H](C)CO)C(=O)c2cc(NC(=O)CCCN(C)C)ccc2O1
5: O=C(NCCc1ccccc1)[C@@H]1[C@@H](CO)[C@@H]2Cn3c(cccc3=O)[C@@H]2N1Cc1ccccc1
6: C[C@@H]1CN([C@@H](C)CO)C(=O)c2ccccc2-c2ccccc2CO[C@@H]1CN(C)S(C)(=O)=O
7: Cc1ccc(-c2ccc3c(c2)O[C@@H](CN(C)Cc2ccccn2)[C@H](C)CN([C@@H](C)CO)S3(=O)=O)cc1
8: C[C@@H]1CN([C@@H](C)CO)S(=O)(=O)c2ccc(C#CCN(C)C)cc2O[C@H]1CN(C)C(=O)C1CCCCC1
entry no.	1	2	3	4	5	6	7	8
Vaccinia inh	4	4	15	-4	8	34	?	1
Vaccinia inh Venus	7	3	5	4	6	19	.	-2

9: C[C@@H](NC(=O)C[C@H]1C=C[C@@H](NC(=O)CN2CCOCC2)[C@H](CO)O1)c1ccccc1
10: CN1C(=O)c2cc(NC(=O)Cc3cccs3)ccc2OC[C@H]2O[C@@H](CC(=O)NCC3CCCCC3)CC[C@@H]21
11: COc1ccc(NC(=O)N2CCCCN3[C@H](CO)[C@H](c4ccc(C5=CCCC5)cc4)[C@H]3C2)cc1
12: CO[C@@H]1CN(C)C(=O)c2cc(NC(=O)C3CC3)ccc2OC[C@@H](C)N(Cc2cccnc2)C[C@@H]1C
13: C[C@H]1CN([C@@H](C)CO)C(=O)c2cccc(NC(=O)NC3CCCCC3)c2O[C@@H]1CN(C)S(=O)(=O)c1ccc(Cl)cc1
14: COc1ccc2c3c([nH]c2c1)[C@@H](CO)N(C(=O)CN(C)C)CC31CN(CC2CC2)C1
15: CCC(=O)N1[C@H](C(=O)NC2CCCC2)[C@@H](CO)[C@@H]2Cn3c(ccc(C4=CCCC4)c3=O)[C@@H]21
16: COc1ccc2c3c([nH]c2c1)[C@@H](CO)N(C(=O)Nc1ccc(F)cc1)CC31CN(S(=O)(=O)c2cccc(F)c2)C1
entry no.	9	10	11	12	13	14	15	16
Vaccinia inh	15	13	?	0	-21	9	19	22
Vaccinia inh Venus	14	7	.	-2	-18	5	11	12

# The list itself, from the start:
1: CO[C@H]1CN(C)C(=O)c2ccc(NC(=O)C3CC3)cc2OC[C@@H](C)N(C(=O)CN2CCOCC2)C[C@H]1C
2: COc1cccc(NC(=O)N[C@@H]2C=C[C@@H](CC(=O)N3CCOCC3)O[C@@H]2CO)c1
3: Cc1noc(C)c1NC(=O)Nc1ccc2c(c1)CC(=O)N([C@@H](C)CO)C[C@@H](C)[C@@H](CN(C)C(=O)Nc1c(C)noc1C)O2
4: C[C@@H]1CCCCO[C@@H](CN(C)S(C)(=O)=O)[C@H](C)CN([C@@H](C)CO)C(=O)c2cc(NC(=O)CCCN(C)C)ccc2O1
5: O=C(NCCc1ccccc1)[C@@H]1[C@@H](CO)[C@@H]2Cn3c(cccc3=O)[C@@H]2N1Cc1ccccc1
6: C[C@@H]1CN([C@@H](C)CO)C(=O)c2ccccc2-c2ccccc2CO[C@@H]1CN(C)S(C)(=O)=O
entry no.	1	2	3	4	5	6
Vaccinia inh	4	4	15	-4	8	34
Vaccinia inh Venus	7	3	5	4	6	19

7: Cc1ccc(-c2ccc3c(c2)O[C@@H](CN(C)Cc2ccccn2)[C@H](C)CN([C@@H](C)CO)S3(=O)=O)cc1
8: C[C@@H]1CN([C@@H](C)CO)S(=O)(=O)c2ccc(C#CCN(C)C)cc2O[C@H]1CN(C)C(=O)C1CCCCC1
9: C[C@@H](NC(=O)C[C@H]1C=C[C@@H](NC(=O)CN2CCOCC2)[C@H](CO)O1)c1ccccc1
10: CN1C(=O)c2cc(NC(=O)Cc3cccs3)ccc2OC[C@H]2O[C@@H](CC(=O)NCC3CCCCC3)CC[C@@H]21
11: COc1ccc(NC(=O)N2CCCCN3[C@H](CO)[C@H](c4ccc(C5=CCCC5)cc4)[C@H]3C2)cc1
12: CO[C@@H]1CN(C)C(=O)c2cc(NC(=O)C3CC3)ccc2OC[C@@H](C)N(Cc2cccnc2)C[C@@H]1C
entry no.	7	8	9	10	11	12
Vaccinia inh	?	1	15	13	?	0
Vaccinia inh Venus	.	-2	14	7	.	-2

13: C[C@H]1CN([C@@H](C)CO)C(=O)c2cccc(NC(=O)NC3CCCCC3)c2O[C@@H]1CN(C)S(=O)(=O)c1ccc(Cl)cc1
14: COc1ccc2c3c([nH]c2c1)[C@@H](CO)N(C(=O)CN(C)C)CC31CN(CC2CC2)C1
15: CCC(=O)N1[C@H](C(=O)NC2CCCC2)[C@@H](CO)[C@@H]2Cn3c(ccc(C4=CCCC4)c3=O)[C@@H]21
16: COc1ccc2c3c([nH]c2c1)[C@@H](CO)N(C(=O)Nc1ccc(F)cc1)CC31CN(S(=O)(=O)c2cccc(F)c2)C1
17: Cc1noc(C)c1NC(=O)N(C)C[C@H]1Oc2ccc(NC(=O)Cc3ccccc3)cc2CC(=O)N([C@H](C)CO)C[C@H]1C
18: C[C@H]1CN([C@@H](C)CO)C(=O)c2cccc(NS(C)(=O)=O)c2O[C@H]1CN(C)C(=O)Nc1ccc(F)cc1
entry no.	13	14	15	16	17	18
Vaccinia inh	-21	9	19	22	5	20
Vaccinia inh Venus	-18	5	11	12	1	17

19: CN1C(=O)c2cc(NC(=O)Cc3ccccc3)ccc2OC[C@@H]2O[C@H](CC(=O)O)CC[C@@H]21
20: Cc1noc(C)c1NC(=O)N(C)C[C@@H]1Oc2ccc(NC(=O)CCN3CCOCC3)cc2C(=O)N([C@H](C)CO)C[C@H]1C
21: C[C@H](CO)N1C[C@H](C)[C@H](CN(C)CC2CC2)Oc2c(NC(=O)NC3CCCCC3)cccc2C1=O
22: C[C@@H]1CN([C@H](C)CO)C(=O)c2cc(C#CC3CC3)cnc2O[C@@H]1CN(C)C(=O)CC1CC1
23: CC(=O)N(C)C[C@@H]1Oc2ncc(C#Cc3ccc(F)cc3)cc2C(=O)N([C@@H](C)CO)C[C@@H]1C
24: C[C@@H]1CN([C@H](C)CO)C(=O)c2cc(NC(=O)CCCN(C)C)ccc2O[C@@H](C)CCCCO[C@H]1CN(C)Cc1ccccc1
entry no.	19	20	21	22	23	24
Vaccinia inh	6	29	-10	4	-4	-2
Vaccinia inh Venus	3	13	-7	2	-5	-8

25: COCC(=O)N(C)C[C@H]1Oc2ncc(C#Cc3ccccc3)cc2C(=O)N([C@@H](C)CO)C[C@@H]1C
26: C[C@@H]1CN([C@@H](C)CO)C(=O)CCCn2nncc2CO[C@@H]1CN(C)C(=O)Nc1ccc(N2CCCCC2)cc1
27: C/C=C/c1cnc2c(c1)C(=O)N([C@H](C)CO)C[C@H](C)[C@H](CN(C)S(=O)(=O)c1ccc(F)cc1)O2
28: CNC[C@@H]1Oc2ccc(NC(=O)Nc3ccc(OC)cc3)cc2CC(=O)N([C@@H](C)CO)C[C@H]1C
29: CCCNC(=O)Nc1ccc2c(c1)C(=O)N(C)C[C@H](OC)[C@H](C)CN(C(C)=O)[C@@H](C)CO2
30: C[C@@H]1CN([C@@H](C)CO)C(=O)c2cc(NS(=O)(=O)c3cccs3)ccc2O[C@@H]1CN(C)C(=O)NC1CCCCC1
entry no.	25	26	27	28	29	30
Vaccinia inh	15	6&-7	1	0	6	7
Vaccinia inh Venus	8	5&3	3	-2	9	8

31: Cc1ccc(S(=O)(=O)N(C)C[C@H]2OCCCC[C@@H](C)Oc3ccc(NS(C)(=O)=O)cc3C(=O)N([C@H](C)CO)C[C@H]2C)cc1
32: C[C@H](CO)N1C[C@H](C)[C@H](CN(C)C)Oc2cc(C#CC3(O)CCCC3)ccc2S1(=O)=O
33: N#C[C@H]1[C@H](c2ccccc2-c2ccc(F)cc2)[C@@H](CO)N1C(=O)Cc1ccccc1
34: C[C@H](CO)N1C[C@H](C)[C@@H](CN(C)C(=O)NC2CCCCC2)OCCCC[C@H](C)Oc2ccc(NS(=O)(=O)c3cccs3)cc2C1=O
35: C[C@@H]1CCCCO[C@@H](CN(C)S(=O)(=O)c2ccc(F)cc2)[C@H](C)CN([C@H](C)CO)C(=O)c2cc(NS(=O)(=O)c3cccs3)ccc2O1
36: COc1cccc(C(=O)Nc2ccc3c(c2)C(=O)N(C)[C@@H]2CC[C@H](CC(=O)N[C@H](C)c4ccccc4)O[C@@H]2CO3)c1
entry no.	31	32	33	34	35	36
Vaccinia inh	-19	9	?	-5	?	-19
Vaccinia inh Venus	-15	-1	.	-10	.	-11

37: C[C@H]1CCCCO[C@H](CN(C)C)[C@@H](C)CN([C@@H](C)CO)C(=O)c2cc(NC(=O)c3ccccc3)ccc2O1
38: COCC(=O)N1[C@H](CO)[C@H](c2ccc(C#CC(C)C)cc2)[C@@H]1CNC(C)=O
39: N#C[C@@H]1[C@H](c2ccccc2)[C@H](CO)N1C(=O)c1ccc2c(c1)OCO2
40: C[C@H]1CN([C@@H](C)CO)S(=O)(=O)c2ccc(-c3cccc(C(=O)N(C)C)c3)cc2O[C@H]1CN(C)C(=O)Nc1ccccc1
41: COc1ccc(CNC(=O)C[C@@H]2C[C@H]3c4cc(NC(=O)CN(C)C)ccc4O[C@H]3[C@H](CO)O2)cc1
42: O=C(C[C@@H]1C[C@@H]2c3cc(NS(=O)(=O)c4ccc(F)cc4)ccc3O[C@@H]2[C@H](CO)O1)NCc1ccncc1
entry no.	37	38	39	40	41	42
Vaccinia inh	-17	1	-3	-9	2	7
Vaccinia inh Venus	-3	4	-13	-8	3	10

43: CC(C)NC(=O)N[C@H]1CC[C@@H](CCn2cc(-c3ccccc3)nn2)O[C@H]1CO
44: CCCC(=O)N1CC2(C1)CN(C(=O)CN1CCOCC1)[C@@H](CO)c1c2c2ccc(OC)cc2n1C
45: CCS(=O)(=O)Nc1ccc2c(c1)C(=O)N(C)C[C@H](OC)[C@@H](C)CN(C)[C@H](C)CO2
46: COc1cccc(S(=O)(=O)N[C@@H]2C=C[C@@H](CC(=O)NC3Cc4ccccc4C3)O[C@@H]2CO)c1
47: O=C(Nc1ccc(F)cc1)N[C@@H]1CC[C@@H](CCNC(=O)c2ccccc2F)O[C@@H]1CO
48: CN(C)C(=O)C[C@H]1CC[C@H](NC(=O)C2CC2)[C@H](CO)O1
entry no.	43	44	45	46	47	48
Vaccinia inh	1	16	15	5	-3	-5
Vaccinia inh Venus	2	3	4	8	-3	-4

49: OC[C@H]1[C@@H](c2ccc(C3=CCCC3)cc2)[C@@H]2CN(CCC(F)(F)F)CCCCN12
50: C[C@H]1CN([C@@H](C)CO)C(=O)CCCn2cc(nn2)CO[C@H]1CN(C)Cc1ccncc1
51: C[C@H]1CN([C@@H](C)CO)C(=O)c2cc(C#CC3CCCC3)cnc2O[C@@H]1CN(C)S(C)(=O)=O
52: C[C@@H]1CN([C@@H](C)CO)C(=O)c2cc(C#CCN(C)C)cnc2O[C@@H]1CN(C)C(=O)Nc1cc(F)ccc1F
53: C[C@@H]1CN([C@H](C)CO)C(=O)c2cccc(NS(C)(=O)=O)c2O[C@@H]1CN(C)Cc1ccc(Cl)c(Cl)c1
54: O=C(Nc1ccccc1)N1C[C@H]2[C@@H](c3ccccc31)[C@@H](CO)N2C(=O)c1ccccn1
entry no.	49	50	51	52	53	54
Vaccinia inh	7	4	-8	4	-2	9
Vaccinia inh Venus	-1	2	-4	3	-1	-2

55: CCC(=O)N1CC2(C1)CN(CC1CCOCC1)[C@H](CO)c1c2c2ccc(OC)cc2n1C
56: COCC(=O)Nc1ccc2c(c1)[C@@H]1C[C@@H](CC(=O)N3CCOCC3)O[C@@H](CO)[C@@H]1O2
57: C[C@@H]1CN([C@H](C)CO)S(=O)(=O)c2ccc(C#CCC3CCCC3)cc2O[C@@H]1CN(C)C(=O)c1cnccn1
58: O=C(NCC[C@H]1CC[C@@H](NS(=O)(=O)c2ccc(Cl)cc2)[C@H](CO)O1)c1ccc2c(c1)OCO2
59: C[C@H]1CN([C@@H](C)CO)C(=O)Cc2cc(NC(=O)Nc3ccccc3)ccc2O[C@@H]1CN(C)CC1CCCCC1
60: COc1ccc2c3c([nH]c2c1)[C@H](CO)N(C(=O)C1CCOCC1)CC31CCN(C(=O)NC(C)C)CC1
entry no.	55	56	57	58	59	60
Vaccinia inh	22	22	?	-18	-33	7
Vaccinia inh Venus	22	12	.	-10	-29	6

61: CN1C(=O)c2cc(NC(=O)C3CCC3)ccc2OC[C@@H]2O[C@@H](CC(=O)NCC3CCCCC3)CC[C@H]21
62: CN(C)C(=O)[C@@H]1[C@@H](CO)[C@@H]2Cn3c(ccc(-c4ccc(F)cc4)c3=O)[C@H]1N2CCc1ccccc1
63: C[C@H](CO)N1C[C@H](C)[C@@H](CN(C)Cc2ccc(Oc3ccccc3)cc2)Oc2ccc(NS(=O)(=O)c3ccccc3)cc2CC1=O
64: Cc1ccc(S(=O)(=O)N2C[C@H](O)COC[C@@H]3O[C@@H](CC(=O)N[C@@H]4CCN(Cc5ccccc5)C4)CC[C@H]32)cc1
entry no.	61	62	63	64
Vaccinia inh	-30	-14	?	-20
Vaccinia inh Venus	-24	0	.	-16
